Screens from PubChem.
miR-21 reporter = miR-21 reporter, rising signal; HeLa miR-21 FLuc reporter, luciferase, 48 h; Potency, µM (top dose mostly 38.3 µM), for inactives: at the top dose reporter change, positive = more light; 340,000 tested, under 10 active; AID 2288; active = well fitted rising curve with a large enough effect; inconclusive = small, poorly fitted or top-dose-only effect; inactive = no such curve, though single readings can be large or run the other way;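 further: % of control where 0% means no effect; miR-21 action dims this reporter so a rising signal means less miR-21 action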
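Compounds were titrated across several concentrations (up to approximately 40 uM) and incubated 48 hours with HeLa miR-21-FLuc reporter cells (miR-21 target sequence downstream of FLuc, endogenous miR-21). Readout was firefly luciferase luminescence after lytic detection reagent.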
Rango dissoc inh = prevents RanGTP from dissociating the Rango-importin beta complex. AID 540253. O95149+P62826. Biochemical FRET Rango-importin beta, RanGTP-induced dissociation. Potency, µM (highest dose often 46.1 µM), without a hit: at the highest dose activity change, negative = inhibition. 340,000 tested, 0.071% active; active means falling FRET ratio curve, often poorly fitted, with flat reads before Ran was added; inconclusive means other falling curves, or compound fluorescence or quenching; inactive means flat or rising ratio curve;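 further: potency means the concentration at half of the fitted maximal effect; % of control where 0% means no effect; nearly all actives have a fitted effect of over 45% in size; -100% = wells without RanGTP and RCC1; the record marks most hits as doubtful in a second field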
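Rango FRET biosensor (snurportin-1 IBB flanked by N-terminal EYFP and C-terminal CFP10) at 0.1 uM, with 0.25 uM importin beta in PBS, 1mM DTT, 0.02% Tween-20, 0.1% BSA. 0.6 uM Ran, 2mM GTP and 0.2 uM RCC1 were then added for 45 min at room temperature. Inhibition read as loss of FRET rise.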
Rango-impB inh = Rango-importin beta binding inhibition; Rango CFP/YFP FRET sensor + importin beta, 45 min; Potency, µM (top dose mostly 92.2 µM), inactives show at the highest dose inhibition of complex formation; 340,000 tested, 0.031% active; active = rising FRET ratio curve, often small or poorly fitted; inconclusive = mostly compound fluorescence or quenching in the first reads; inactive = flat curves in all reads;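 further: potency means the concentration at half of the fitted maximal effect; 0% = DMSO wells and 100% = buffer wells lacking importin beta; nearly all actives have a fitted effect of over 15% in size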
Target sequence (Q14974 whole entry, looked up): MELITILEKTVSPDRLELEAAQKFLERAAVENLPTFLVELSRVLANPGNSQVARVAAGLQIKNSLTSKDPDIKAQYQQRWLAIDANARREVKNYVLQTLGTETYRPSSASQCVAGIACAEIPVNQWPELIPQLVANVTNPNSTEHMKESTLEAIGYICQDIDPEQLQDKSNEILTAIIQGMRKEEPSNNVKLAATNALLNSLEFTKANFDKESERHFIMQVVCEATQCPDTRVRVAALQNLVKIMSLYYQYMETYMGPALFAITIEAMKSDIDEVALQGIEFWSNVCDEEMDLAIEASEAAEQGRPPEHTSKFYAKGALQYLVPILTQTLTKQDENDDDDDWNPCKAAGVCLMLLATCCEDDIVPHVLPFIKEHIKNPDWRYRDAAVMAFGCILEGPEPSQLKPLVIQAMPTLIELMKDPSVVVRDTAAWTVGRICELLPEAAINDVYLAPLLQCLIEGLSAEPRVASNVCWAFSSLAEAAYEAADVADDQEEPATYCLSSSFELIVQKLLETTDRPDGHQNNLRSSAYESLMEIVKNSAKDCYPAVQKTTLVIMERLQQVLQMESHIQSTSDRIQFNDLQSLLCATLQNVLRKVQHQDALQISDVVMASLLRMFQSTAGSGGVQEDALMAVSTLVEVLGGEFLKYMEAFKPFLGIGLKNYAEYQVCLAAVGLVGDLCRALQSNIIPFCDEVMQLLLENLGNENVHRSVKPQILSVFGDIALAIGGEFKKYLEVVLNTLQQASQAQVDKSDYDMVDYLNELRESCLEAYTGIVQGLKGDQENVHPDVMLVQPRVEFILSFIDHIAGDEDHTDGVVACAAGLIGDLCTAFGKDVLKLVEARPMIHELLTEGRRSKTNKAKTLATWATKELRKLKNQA
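FRET biosensor Rango (snurportin 1 IBB between N-terminal EYFP and C-terminal Cerulean), 50 nM in PBS/1 mM DTT/0.02% Tween-20/0.1% BSA, preincubated 5 min RT with compound; 0.125 microM importin beta added, 45 min RT, CFP/YFP FRET ratio read.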
GLA inh pH 4.5 = alpha-galactosidase A (human) inhibition, pH 4.5 | 230,000 tested, under 10 active | P06280 | purified enzyme, 4-MU-alpha-Gal fluorescence, pH 4.5 | activity change, negative = inhibition, % at 105 µM | AID 1467; inconclusive = small, poorly fitted or top-dose-only inhibition, or a rising curve; inactive = flat fitted curve, though single readings scatter; no compound was filed as active;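 further: 0% = full activity with enzyme and -100% = basal without enzyme; dose as in the result columns while the protocol names 77 µM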
Numbers without * were called inactive; u = inconclusive; x = no result given; & = joins results of further samples. Only part of the results is shown; the hit share may differ from the screen's.

SMILES	miR-21 reporter	Rango dissoc inh	Rango-impB inh	GLA inh pH 4.5
CCCn1cc(SCC(=O)NCc2ccco2)c2ccccc21	-4%	8%	-3.1%	0
COc1ccccc1N(C)S(=O)(=O)c1ccc(C(=O)OCC(=O)NCc2cccs2)cc1	1%	-8%	-3.6%	-5
Cc1cccc(CNc2ccc(C(CC(N)=O)NC(=O)c3ccccc3)cc2[N+](=O)[O-])c1 (stereo not given)	-5%	-13%	-2.4%	8
C/C(=N/NS(=O)(=O)c1ccc(Br)cc1)c1c[nH]c2ccccc12	-4%	9%	u	x
CC1(C)Cc2cccc(OCC(O)CN3CCN(c4ccccn4)CC3)c2O1 (stereo not given)	-13%	8%	-0.5%	2
COc1ccc(Oc2cccc(Cl)c2CNC(=O)CCCC(=O)O)cc1	-2%	-7%	1.7%	-6
O=C(Cn1c(=O)oc2ccccc21)c1ccccc1	-5%	-10%	-1.8%	7
CCOc1cc(/C=C2\C(=N)N3N=C(CC)SC3=NC2=O)ccc1OCCOc1ccc(NC(C)=O)cc1	6%	-4%	-2.3%	x
CCCn1c(N)c(C(=O)CSc2nnc(C3CC3)n2C2CC2)c(=O)[nH]c1=O	x	5%	1.4%	x
COc1ccccc1C=NNC(=O)C(=O)NN=Cc1ccccc1OC	x	2%	0.4%	x
Cc1ccc(SCC(=O)OCC(=O)N(C)CC(=O)Nc2ccc(F)cc2)cc1	x	2%	0.5%	x
O=C(NCC(O)c1ccc([N+](=O)[O-])cc1)c1cccc(S(=O)(=O)N2CCCC2)c1 (stereo not given)	-1%	27%	-2.2%	5
CC(C)CCN1CCC(N)=NC1=O	-2%	-17%	0.4%	5
CN(C)/C=C1/C(=O)Nc2ccccc21	0%	11%	1.4%	-10
COc1cccc(NC(=O)CSc2ncc(S(=O)(=O)c3ccccc3)c(=O)[nH]2)c1	4%	11%	u	-5

Two of these compounds, reformatted:
smiles,miR-21 reporter,Rango dissoc inh,Rango-impB inh,GLA inh pH 4.5
Cc1cccc(CNc2ccc(C(CC(N)=O)NC(=O)c3ccccc3)cc2[N+](=O)[O-])c1 (stereo not given),-5%,-13%,-2.4%,8
C/C(=N/NS(=O)(=O)c1ccc(Br)cc1)c1c[nH]c2ccccc12,-4%,9%,u,x

More records follow:
SMILES	miR-21 reporter	Rango dissoc inh	Rango-impB inh	GLA inh pH 4.5
COc1ccccc1C(=O)NCCC(=O)Nc1ncccc1O	-1%	-8%	-5.9%	x
CCN(CC)CCN(C(=O)c1ccc(CN2CCCCC2)o1)C(C(=O)NC1CCCCC1)c1ccc(F)cc1 (stereo not given)	2%	-7%	1.4%	-9
Cc1ccccc1-c1nc(CS(=O)(=O)CC(=O)NCCN2CCCC2)c(C)o1	-5%	-15%	0.4%	x
Cc1ccc(S(=O)(=O)c2ccc(C)cc2)cc1	0%	-1%	4.8%	7
COc1ccccc1N1CCN(C2CCCN(C(=O)c3snnc3C)C2)CC1 (stereo not given)	0%	-5%	-0.7%	x
O=C(O)CCCN1C(=O)C(=O)/C(=C(/O)c2ccc(Cl)cc2)C1c1ccccc1 (stereo not given)	1%	-1%	0.3%	-2
Cc1ccc(-c2cc(C(=O)Nc3cccnc3)c3ccccc3n2)o1	-1%	5%	4.0%	-1
CCCSc1nc(C)nc2c1c(=O)n(C)c(=O)n2C	1%	x	x	4
Nc1ccc(Cl)c(S(=O)(=O)Nc2ccccc2Cl)c1	-1%	6%	-1.2%	0
O=C(Nc1cccc(O)c1)c1cccc(S(=O)(=O)N2CCCC2)c1	-16%	13%	1.8%	0
COc1cccc2cc(/C(=N/O)c3ccc(Br)cc3)oc12	13%	6%	0.5%	-1
Cc1cc(OCCN2CCN(S(=O)(=O)c3ccccc3F)CC2)ccc1C(C)C	x	-12%	0.6%	x
O=C(CSCCO)Nc1cccc([N+](=O)[O-])c1	-7%	0%	-1.0%	1
CCOC(=O)C1CCCN(C(=O)C2CCN(c3nnc(-n4cccc4)s3)CC2)C1 (stereo not given)	-7%	-2%	-0.4%	-5
Cc1cc(C(=O)Nc2cccc(O)c2)co1	-29%	3%	3.7%	-3

Compound profiles, from the list above. Order of screens: miR-21 reporter | Rango dissoc inh | Rango-impB inh | GLA inh pH 4.5
`CCOC(=O)C1CCCN(C(=O)C2CCN(c3nnc(-n4cccc4)s3)CC2)C1` (stereo not given) is listed with -7% | -2% | -0.4% | -5
`CCN(CC)CCN(C(=O)c1ccc(CN2CCCCC2)o1)C(C(=O)NC1CCCCC1)c1ccc(F)cc1` (stereo not given) is listed with 2% | -7% | 1.4% | -9
`COc1ccccc1C(=O)NCCC(=O)Nc1ncccc1O` is listed with -1% | -8% | -5.9% | x

(next part)
SMILES	miR-21 reporter	Rango dissoc inh	Rango-impB inh	GLA inh pH 4.5
CC(=O)c1ccc(NC(=O)CSc2cn[nH]n2)cc1	-2%	-6%	-0.9%	x
COc1cccc(CNC(=O)CCC2CCCN(C(=O)c3cc4ccccc4o3)C2)c1 (stereo not given)	-29%	12%	4.1%	-9
Cc1nc2sc3c(c2c(=O)o1)CCC3	-6%	-3%	4.2%	2
CCn1c(SCc2nc3ccccc3[nH]2)nnc1-c1cccnc1	-2%	-21%	1.0%	2
CSCC[C@H](NC(=O)c1cccnc1)c1nnc2ccccn12	-1%	12%	-2.8%	x
CCOC(=O)c1c(C)[nH]c(C(=O)CN2C(=O)NC(C)(c3ccc4ccccc4c3)C2=O)c1C (stereo not given)	6%	5%	-0.5%	-9
COCCCNC(=O)C1c2ccccc2Oc2ccccc21	-5%	-3%	0.1%	x
CC(Nc1ccc2ccccc2c1)C(=O)N/N=C/c1ccncc1 (stereo not given)	x	-13%	u	x
COc1ccccc1NC(=O)c1sc2nc(-c3ccco3)ccc2c1N	-28%	u	u	1
Cc1ccc(NC(=O)COC(=O)CNC(=O)c2ccc(C)s2)cc1	1%	3%	2.6%	-5
Cc1cc(C)cc(OCC(=O)Nc2cc(C)on2)c1	-8%	3%	-0.5%	0
O=C(Nc1ccc([N+](=O)[O-])cc1)C1CC1(c1ccccc1)c1ccccc1 (stereo not given)	1%	20%	-4.0%	3
CCCn1c(=NC(C)=O)c(C(=O)OCC)cc2c(=O)n3ccccc3nc21	-12%	u	u	u
CCOC(=O)c1c(C)[nH]c(C)c1C(=O)CSc1nc2ccccc2[nH]1	0%	-3%	-1.3%	-10
CC(C)COC(=O)C1C2C=CC3(CN(C4CCCC4)C(=O)C13)O2 (stereo not given)	-1%	-20%	-1.6%	3
CCOC(=O)C1CCN(C(=O)c2ccc3c(c2)C(=O)N(c2ccccc2C)C3=O)CC1	x	5%	1.3%	x
COc1cc(/C=N/NC(=O)CC2C(=O)NN=C2C)ccc1O (stereo not given)	1%	-1%	-0.1%	3
CCC1=NN2C(=N)/C(=C/c3cc(C)n(-c4ccccc4)c3C)C(=O)N=C2S1	0%	-17%	u	-10
Cc1ccc(C(=O)Nc2cccc3ncccc23)cc1[N+](=O)[O-]	-8%	-5%	-2.5%	-1
O=C1CCCC2=C1C(c1ccsc1)CC(=O)N2c1ccccc1 (stereo not given)	-7%	12%	11%	3
CC(=O)c1cccc(NC(=S)N2CCN(CCN3C(=O)c4cccc5cccc(c45)C3=O)CC2)c1	-4%	-5%	0.2%	-8
Cc1[nH]c2ccccc2c1C(=O)CSc1nc2ccccc2c(=O)n1CCCN1CCOCC1	-2%	9%	2.9%	-16
COc1cc(OC)c(/C=N/NC(=O)c2ccc(NC(C)=O)cc2)cc1Br	-1%	-8%	3.4%	9
Cc1ccc(-n2c(SCC(=O)O)nc3sc4c(c3c2=O)CC(C)(C)SC4)cc1	x	14%	-2.1%	x
CCOC(=O)C(CC(=O)O)N1CCCCC1 (stereo not given)	2%	5%	-1.7%	5
Cc1cc(C)c(S(=O)(=O)N2CCN(C(=O)C(C)Cn3nc(C)nc3C)CC2)c(C)c1 (stereo not given)	1%	2%	-2.7%	x
O=C(NCC1CCCO1)c1ccc(/C=N/O)nc1 (stereo not given)	-2%	9%	2.9%	3
COc1cccc(S(=O)(=O)NCc2ccc3c(c2)OCO3)c1	0%	14%	-1.3%	-12
Cn1cnnc1SCC(=O)Nc1ccc(S(N)(=O)=O)cc1	9%	3%	3.6%	x
O=[N+]([O-])c1ccc(OCc2nnc(-c3ccccc3)o2)cc1	-9%	16%	-0.9%	5
O=C1CC(N2CCSCC2)C(=O)N1c1ccc(Br)cc1 (stereo not given)	2%	-17%	-0.3%	-10
COC(=O)CCCC1=CC2=CC(=O)C(C)(OC(=O)c3cccs3)C(=O)C2=CN1CC(C)C (stereo not given)	-2%	-15%	-1.6%	7&-6
O=C(c1cn(CC2CCCCC2)nn1)N1CCN(c2ccc(F)cc2)CC1	0%	-5%	-0.8%	x
Cc1ccc(S(=O)(=O)N2CCN(S(=O)(=O)N(C)C)CC2)cc1	-2%	u	-4.2%	2
N#Cc1nc(-c2ccco2)oc1NCc1ccco1	-31%	-8%	-1.7%	-3
Cc1cc(CNC(=O)C2CCC(=O)N(CCc3cccc(F)c3)C2)nn1C (stereo not given)	1%	-8%	-0.4%	x
O=C1CCCc2c1[nH]c1c(Br)cccc21	-10%	1%	0.1%	9
N=c1c(C(=O)NCc2ccccc2)cc2c(=O)n3ccccc3nc2n1CCCN1CCOCC1	0%	u	u	15
CC(C)c1ccccc1NC(=O)CNC(C)c1ccc(F)cc1 (stereo not given)	-3%	0%	-2.4%	1
Cn1cc(NC(=O)OCc2ccc(Cl)cc2)c(C(F)(F)F)n1	-8%	-21%	3.5%	-14
C=CCn1cc(Cl)c(=O)n(CC=C)c1=O	1%	13%	0.7%	8
Cc1ccc(S(=O)(=O)NCc2ccccc2)cc1C(=O)N(C)Cc1ccc(F)cc1	12%	-11%	5.3%	x
Cc1cccc(N2CCN(S(=O)(=O)c3cc4c(cc3Cl)NC(=O)CO4)CC2)c1C	-2%	-1%	-0.9%	x
Cc1ccc(SCCC(=O)OCC(=O)NCC2CCCCC2)cc1	2%	6%	2.5%	7
Cn1cc(/C=N/NC(N)=S)c2ccccc21	-11%	3%	-0.4%	1
O=C(NN1CCOCC1)c1ccc(Cl)cc1Cl	x	-4%	-0.7%	x
Cc1nc(COc2cccc(Cl)c2)sc1C(=O)/C=C/N(C)C	-24%	10%	0.6%	-12
Cc1ccc(-n2ncc3c2CCCC3NC(=O)c2ccoc2)cc1C (stereo not given)	4%	-6%	-1.9%	x
CC(C)(C)C(=O)Nc1ccc(NC(=O)C(C)(C)C)cc1	-15%	-12%	-0.5%	13
CCN(C(=O)CN1CCCc2ccccc21)c1c(N)n(Cc2ccccc2)c(=O)[nH]c1=O	-4%	x	x	6
CC(C)(C)NC(=O)Cn1nnc(-c2ccccc2NC(=O)c2ccco2)n1	x	-8%	5.4%	x
COc1ccc(OC)c(S(=O)(=O)Nc2ccc(OCC(=O)O)cc2)c1	5%	u	0.6%	-3
Cn1c(CCN2CCCCC2)nc2cc(NC(=O)NC3CCCCC3)ccc21	-16%	10%	0.0%	0
CCOC(=O)C(CCCCC(NC(C)=O)(C(=O)OCC)C(=O)OCC)(NC(C)=O)C(=O)OCC	0%	1%	u	0
C[C@H](CO)N1C[C@H](C)[C@@H](CN(C)S(=O)(=O)c2ccc(F)cc2)Oc2ccc(NS(=O)(=O)c3ccc(F)cc3)cc2C1=O	x	6%	-1.4%	x
Cc1cc(NC(=O)CS(=O)(=O)c2cn(Cc3cccc(F)c3)c3ccccc23)no1	12%	19%	-1.5%	-5
Cc1cc(C)nc(NS(=O)(=O)c2ccc(NC(=O)c3cc(=O)c4ccccc4o3)cc2)n1	-12%	u	1.7%	x
CCC(SCC(=O)OC)C(=O)Nc1nnc(C(C)C)s1 (stereo not given)	-5%	15%	u	0
COc1ccc(NS(=O)(=O)c2cc(NC(=O)CC(C)(C)C)ccc2N2CCCC2)cc1	x	1%	0.4%	x
O=C(CCN1C(=O)/C(=C/c2ccccc2)SC1=S)NCCCN1CCOCC1	1%	33%	2.3%	x
Nc1cc(=O)[nH]c(SCC(=O)Nc2cccc(Cl)c2)n1	-3%	0%	0.3%	0
COC(=O)c1cc(S(=O)(=O)N2CCN(c3cccc(C)c3C)CC2)c[nH]1	15%	31%	6.2%	x
